Screening data (PubChem)
KCNQ2 inh = KCNQ2 channel blockers in CHO-K1 cells – cell-based, FluxOR thallium flux, B-score, primary screen (AID 2156) | 20 min; active compounds read low; only compounds with negative scores are shown here; some inactives read as strong as hits | O88943 | 310,000 compounds, 1.1% hits | B-score at 10 µM;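 active = fluorescence ratio B-score at most minus 3 library SDs, with starting brightness B-score within 2 library SDs, cut at about -5.5 in these data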
Target sequence (O88943 whole entry, looked up): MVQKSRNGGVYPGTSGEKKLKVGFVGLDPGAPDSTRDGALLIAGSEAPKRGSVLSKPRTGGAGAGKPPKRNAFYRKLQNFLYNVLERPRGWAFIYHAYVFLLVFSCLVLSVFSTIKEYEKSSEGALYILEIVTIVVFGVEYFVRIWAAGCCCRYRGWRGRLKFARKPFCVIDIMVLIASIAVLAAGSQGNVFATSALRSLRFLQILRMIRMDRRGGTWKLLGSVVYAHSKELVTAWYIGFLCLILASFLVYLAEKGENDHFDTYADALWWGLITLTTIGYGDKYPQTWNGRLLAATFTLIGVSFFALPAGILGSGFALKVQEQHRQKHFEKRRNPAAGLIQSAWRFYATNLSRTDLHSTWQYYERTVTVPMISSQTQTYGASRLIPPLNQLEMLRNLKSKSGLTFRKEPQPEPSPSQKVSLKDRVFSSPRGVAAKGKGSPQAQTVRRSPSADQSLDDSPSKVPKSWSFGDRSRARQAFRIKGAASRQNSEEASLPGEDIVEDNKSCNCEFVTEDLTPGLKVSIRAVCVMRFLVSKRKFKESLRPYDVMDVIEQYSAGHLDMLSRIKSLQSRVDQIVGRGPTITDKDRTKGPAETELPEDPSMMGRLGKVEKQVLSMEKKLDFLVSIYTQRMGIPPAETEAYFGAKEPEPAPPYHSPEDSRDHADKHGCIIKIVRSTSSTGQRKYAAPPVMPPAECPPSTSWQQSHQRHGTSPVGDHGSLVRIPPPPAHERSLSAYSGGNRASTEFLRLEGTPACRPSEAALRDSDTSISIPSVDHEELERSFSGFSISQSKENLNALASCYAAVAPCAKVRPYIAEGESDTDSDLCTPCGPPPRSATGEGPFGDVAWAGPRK
KCNQ2 inh baseline = further read-out of KCNQ2 inh, marked with its call; B-score; measured here: initial fluorescence intensity artifact check;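 brightness before thallium and not channel activity; 0 = typical well and far values either way flag optical interference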
An asterisk follows results filed as active; i = inactive.

SMILES | KCNQ2 inh | KCNQ2 inh baseline
Cc1cc(C)cc(OCC(=O)O/N=C(\N)Cc2ccc([N+](=O)[O-])cc2)c1 | i | -0.09
C/C(=N\OC(=O)Nc1ccc(Cl)cc1)c1ncc(C(F)(F)F)cc1N1CCOCC1 | i | -1.2
CC1CCN(C(=O)C(Cc2ccccc2)n2cccc2)CC1 (stereo unspecified) | i | -0.73
Cc1cc(C)c(C#N)c(OCc2ccc(Cl)nc2)n1 | i | -1.3
COc1cccc(-c2c(C(=O)N/N=C(\C)COc3ccccc3)nnn2-c2nonc2N)c1 | i | -0.59
Cc1cc(Cl)ccc1OC(C)C(=O)Nc1ccc(S(=O)(=O)Nc2cnc3ccccc3n2)cc1 (stereo unspecified) | i | 1.2
CCOc1ccc(-c2cn(-c3ccccc3OC)c(=S)[nH]2)cc1 | i | -0.22
COC(=O)c1ccc[n+](CC(=O)Nc2ccc(OC(F)F)cc2)c1 | i | 0.98
O=C(NCCCc1ccccc1)C1CCC(=O)N(CCc2ccc(Cl)cc2)C1 (stereo unspecified) | i | -0.3
CCOc1ccc(S(=O)(=O)N(CC(N)=O)c2ccc(C)cc2)cc1 | i | 0.36
Cc1nc2sccn2c(=O)c1CCN1CCC(=C(c2ccccc2)c2ccc(F)cc2)CC1 | i | -0.71
COc1cccc(/C=C2\SC(=O)N(CCC(=O)NCCCn3ccnc3)C2=O)c1 | i | 4.7
CC(NC(=O)CN(C)Cc1cccs1)c1ccccc1 (stereo unspecified) | i | -2
Cc1ccc(C(=O)NCCS(=O)(=O)N2CCN(c3ccccc3F)CC2)cc1[N+](=O)[O-] | i | -0.64
COCCCNC(=S)NNC(=O)c1ccccc1Br | i | -1.2
CCOc1ccccc1NC(=O)c1oc2ccccc2c1NC(=O)C1CC1 | i | -0.32
O=C(Nc1ccc(Cl)c(Cl)c1)OCCNC(=O)c1cccc(Cl)c1 | i | -2.4
CCc1cc(OCCN2C(=O)NC(C)(C)C2=O)ccc1Cl | i | -1.9
NC(=O)C1=C[C@@H](c2ccc(Br)cc2)C[C@@H](OCc2ccc(CO)cc2)O1 | i | 0.5
CCOC(=O)c1sc2c(c1C)c(=O)n(Cc1ccccc1)c(=O)n2CCN(C)C | i | 0.03
O=C(CCc1nnc(Cc2cccc(C(F)(F)F)c2)o1)NCC(F)(F)F | i | -0.45
CC12CCC(C(=Nc3ccc(N=C4C(=O)C5(C)CCC4C5(C)C)cc3)C1=O)C2(C)C | i | -0.31
CC(=O)c1sc(NC(=O)c2ccccc2C)nc1C | i | 0.24
CCOC(=O)C1CCCN(C(=O)CS(=O)(=O)Cc2ccccc2)C1 (stereo unspecified) | i | 2.6
O=C(CSc1nnc(-c2cccnc2)n1Cc1ccco1)c1ccccc1 | i | 2
CC(C)Cn1nc(NC(=O)c2cccs2)c2cc3ccccc3nc21 | i | -0.28
O=C(CSc1ccc(-c2cccnc2)nn1)Nc1ccc(Br)cc1 | i | -1.1
CCN(CC)Cc1cc(C(=O)O)c(C)o1 | i | 2.5
CN(C)c1ccc(/C=C2\SC(=O)N(CC(O)Cn3c4ccccc4c4ccccc43)C2=O)cc1 (stereo unspecified) | i | 4.3
CNC(=S)N(Cc1ccc(OC)cc1)Cc1cc2ccc(C)cc2[nH]c1=O | i | 0.7
COc1ccc(S(=O)(=O)N2CCOC2CNC(=O)C(=O)NCCN(C)C)cc1 (stereo unspecified) | i | 2.5
COc1ccc(N2CCN(c3oc(Cc4ccccc4)nc3C#N)CC2)cc1 | i | 0.07
COC(=O)c1c(C(C)=O)cnc2ccc(Br)cc12 | i | -0.01
COc1cc(/C=C(\C#N)C(=O)Nc2cc(C(F)(F)F)ccc2Cl)ccc1OCC(=O)Nc1cccc(C(F)(F)F)c1 | i | -1.5
COc1ccc(C2C(C(N)=O)=C(C)Nc3ncnn32)cc1 (stereo unspecified) | i | 1.6
CC/C(=N\NC(=S)Nc1ccc(OC)cc1)c1ccc(OC(F)F)cc1 | i | 1.8

Single values from the list:
For KCNQ2 inh baseline, `COC(=O)c1c(C(C)=O)cnc2ccc(Br)cc12` is entered as -0.01
For KCNQ2 inh baseline, `O=C(CSc1nnc(-c2cccnc2)n1Cc1ccco1)c1ccccc1` is entered as 2
For KCNQ2 inh baseline, `COc1ccc(S(=O)(=O)N2CCOC2CNC(=O)C(=O)NCCN(C)C)cc1` (stereo unspecified) is entered as 2.5
For KCNQ2 inh baseline, `COc1ccc(N2CCN(c3oc(Cc4ccccc4)nc3C#N)CC2)cc1` is entered as 0.07
For KCNQ2 inh baseline, `CCN(CC)Cc1cc(C(=O)O)c(C)o1` is entered as 2.5
For KCNQ2 inh baseline, `CN(C)c1ccc(/C=C2\SC(=O)N(CC(O)Cn3c4ccccc4c4ccccc43)C2=O)cc1` (stereo unspecified) is entered as 4.3

(listing goes on)
SMILES | KCNQ2 inh | KCNQ2 inh baseline
S=c1[nH]nc([C@@H]2C[C@H]2c2ccccc2)n1-c1ccccc1 | i | 0.15
O=c1cc(NCc2ccco2)[nH]c(=O)n1-c1ccc(Br)cc1 | i | -1.5
CCN(CC)S(=O)(=O)c1ccc(NC(=O)CCC2CCCCC2)cc1 | i | 0.73
CN(C)C1CCN(C(=O)c2cccc(OC3CCN(S(=O)(=O)N(C)C)CC3)c2)C1 (stereo unspecified) | i | 1
O=C1NCCCC1C(=O)N/N=C/c1ccc(Cl)cc1 (stereo unspecified) | i | 2
Cc1sc(-n2c(C)cc(/C=C3\SC(=S)NC3=O)c2C)c(C#N)c1C | i | -0.17
Cc1ccc(CSc2ncnc3c2cnn3Cc2ccccc2)cc1C | i | 0.26
CCCCN(C)C1=CC2=CC(=C(C#N)C#N)CCC2CC1 (stereo unspecified) | i | 25
O=C(OCc1cc2ccccc2[nH]c1=O)c1ccncc1 | i | -0.85
Cc1cccc(N2CCN(C(=O)c3cc(S(=O)(=O)N4CCOCC4)cn3C)CC2)c1C | i | 0.03
c1ccc2c(CCNc3ncnc4nc[nH]c34)c[nH]c2c1 | i | 1.8
COC(=O)c1ccccc1NC(=O)CN1C(=O)c2ccccc2C1=O | i | -1.2
Cc1nnc(-c2cnn(C)c2N)n1Cc1ccc2c(c1)OCO2 | i | 0.44
CC1CCCC(C)N1CCCNC(=O)C1CCCN(c2ncnc3c2nc2n3CCCCC2)C1 (stereo unspecified) | i | -0.47
C[C@H](NC(=O)c1ccccc1Cl)C(=O)OCc1cn2cc(Cl)ccc2n1 | i | 0.15
CNC(=O)c1ccsc1NC(=O)c1ccc(Cl)s1 | i | -0.59
CCc1cccc(C)c1Nc1nc2ccccc2n2cnnc12 | i | -1.1
O=C(c1ccc2nccnc2c1)N1CCCC(N2CCN(c3ccc(F)cc3)CC2)C1 (stereo unspecified) | i | -0.88
COC(=O)c1ccccc1C(=O)N1CCCC(CCC(=O)NCc2ccc(F)c(F)c2)C1 (stereo unspecified) | i | -0.16
O=C(Nc1ccc(Cl)c(C(F)(F)F)c1)[C@@H]1CC=C[C@@H]2CCN(Cc3ccccc3)C(=O)[C@@H]21 | i | 0.25
CCN(CC)C1CCN(C(=O)CCc2nnc(CCCCc3ccccc3)o2)C1 (stereo unspecified) | i | 0.06
CCN(CC(=O)Nc1ccc2c(c1)OCCO2)Cc1cc(=O)n2ccsc2n1 | i | -0.67
C/C(=N\NC(=O)c1ccc(NS(=O)(=O)c2cccs2)cc1)c1ccc(O)cc1O | i | 0.5
CC(=O)c1c(C)[nH]c(C(=O)NC2=NCCS2)c1C | i | 1.6

Copied from the entries so far for reference:
SMILES | KCNQ2 inh | KCNQ2 inh baseline
COC(=O)c1ccccc1C(=O)N1CCCC(CCC(=O)NCc2ccc(F)c(F)c2)C1 (stereo unspecified) | i | -0.16
O=C(Nc1ccc(Cl)c(C(F)(F)F)c1)[C@@H]1CC=C[C@@H]2CCN(Cc3ccccc3)C(=O)[C@@H]21 | i | 0.25
CCN(CC)C1CCN(C(=O)CCc2nnc(CCCCc3ccccc3)o2)C1 (stereo unspecified) | i | 0.06
CCN(CC(=O)Nc1ccc2c(c1)OCCO2)Cc1cc(=O)n2ccsc2n1 | i | -0.67
C/C(=N\NC(=O)c1ccc(NS(=O)(=O)c2cccs2)cc1)c1ccc(O)cc1O | i | 0.5
CC(=O)c1c(C)[nH]c(C(=O)NC2=NCCS2)c1C | i | 1.6

Further compounds follow.
SMILES | KCNQ2 inh | KCNQ2 inh baseline
CC(NC(=O)c1c(F)cccc1Cl)c1ccc(-n2ccnc2)cc1 (stereo unspecified) | i | -3.5
OCC1(CCOc2ccccc2)CCN(Cc2cccn2-c2ncccn2)CC1 | i | 1.2
Cn1c(SCC(=O)N2CCN(c3ccccc3)CC2)nnc1-c1ccco1 | i | -0.19
O=C(O)CN(c1ccc2c(c1)OCCO2)S(=O)(=O)c1ccccc1 | i | -0.72
O=C(NCCN1CCOCC1)c1cc(Sc2ccc(F)cc2F)nc2ccccc12 | i | 0.04
COc1cccc(/C=C/C(=O)Nc2ccc3[nH]c(=O)[nH]c3c2)c1 | i | 0.32
CC(C)Cc1nc2n[nH]c(N)c2c2c1CCC2 | i | 0.14
Cc1ccc(NC(=O)CC(=O)Nc2ccc(C)c(C)c2)cc1C | i | -0.07
CC(C)(C)OC(=O)NCC(=O)Oc1cc2oc(=O)cc(-c3ccccc3)c2cc1Cl | i | -0.28
O=C(CNC(=O)c1ccco1)NCC(=O)OCc1c(F)cccc1Cl | i | 0.27
COc1cccc(CNC(=O)c2c(C)nn(-c3ccccc3)c2C)c1 | i | -0.31
N#Cc1ccc(C(=O)Nn2cnnc2)cc1 | i | 0.73
COc1cccc(-n2c(SCC(=O)Nc3nc4ccccc4s3)nc3ccccc3c2=O)c1 | -7* | -1.5*
O=C(O)CCC(=O)NNC(=O)COc1ccc(Cl)cc1Cl | i | 0.22
COc1cc(NCCCCCCCN)c2ncccc2c1 | i | -0.61
COc1ccc(NC2=C(C(C)=O)C(c3ccc4c(c3)OCO4)C(C(C)=O)C(C)(O)C2)cc1 (stereo unspecified) | i | 2.2
Cc1ccc(CNc2ccc(CNc3ncn[nH]3)cc2)cc1 | i | -0.01
COc1cc(C)c(CNc2cccc(C)c2)cc1C | i | 0.96
Cc1cc(C)n2nc(C(=O)Nc3nccs3)nc2n1 | i | -0.67
COC(=O)C(Cc1cnc(Cl)s1)(C(=O)OC)c1ccccc1[N+](=O)[O-] | i | -0.28
O=C1CSC(=Nc2cccc([N+](=O)[O-])c2)N1 | i | 0.77
N#Cc1c(NC(=O)c2ccncc2)sc2c1CCC2 | i | -0.04
N#CC1=C2SCN(Cc3ccccc3)CN2C(=O)CC1c1ccc2c(c1)OCO2 (stereo unspecified) | i | 0.56
S=C1NC(c2ccccc2)=NCN1c1ccccc1 | i | 0.4
N#Cc1ccccc1Cn1c(=O)n(C2CCCC2)c(=O)c2ccccc21 | i | 0.8
CN(C(=O)/C=C/c1ccc2c(c1)OCO2)c1ccccc1 | -6.6* | 2.9*
Cc1cc(C)nc(NC(=NCCc2c[nH]c3ccccc23)NC(=O)C(C)(C)C)n1 | i | 0.48
Cc1cc(C)c(S(=O)(=O)Nc2ccccc2C(=O)N2CCOCC2)c(C)c1 | i | -1.5
Cc1ccc(C)c(S(=O)(=O)N2CCN(C(=O)Cn3[nH]c(=O)c4ccccc4c3=O)CC2)c1 | i | 1.6
COc1ccc(OC)c(S(=O)(=O)NC2CCCCC2)c1 | i | -0.19
Cc1ccc(C)c(Cc2c(C)nc(C)[nH]c2=O)c1 | i | -0.43
Cc1nn(Cc2c(F)c(F)c(F)c(F)c2F)c(C)c1NC(=O)c1cccc(COc2ccc(Cl)cc2)c1 | i | 0.03
O=C(NCc1ccccn1)C1CCN(S(=O)(=O)c2ccc(Br)cc2)CC1 | i | 1.2
CSc1ccc(NC(=O)N2CC(C)OC(C)C2)cc1 (stereo unspecified) | i | -2.4
C/C(=N\NC(=O)c1ccc(OC2CCCC2)cc1)c1ccc(O)cc1 | i | -0.03
CC(=O)Oc1cccc(/C=c2\sc3nc(-c4ccco4)nn3c2=O)c1 | i | 0.43
C=CCn1c(COc2ccc(F)cc2)nnc1SCC(=O)NC1CC1 | i | -1.2
Cc1c(C(=O)Nc2ccc(N3CCOCC3)cc2)cccc1[N+](=O)[O-] | i | 1.1
COc1cccc(N2CCN(C(=O)c3ccc4nc(N5CCCCC5)sc4c3)CC2)c1 | i | -0.21
COC(=O)c1ccc(C(C(=O)NCc2ccccc2)N(Cc2ccco2)C(=O)c2cnccn2)cc1 (stereo unspecified) | i | 0.24
O=C(NC(=S)N1CCCCC1)c1cccnc1 | i | -0.17
COc1ccc(C(CCc2ccc(C)o2)NC(=O)Nc2ccc(OC)cc2OC)cc1 (stereo unspecified) | i | 2.5
O=S(=O)(NCc1ccccc1)c1cccs1 | i | 1
COC(=O)c1cc(-c2ccc(S(=O)(=O)N3CCCC(C)C3)cc2)c(C(F)(F)F)s1 (stereo unspecified) | i | 0.07
CCC(NC(=O)c1ccccc1NC(=O)c1ccc(OC)cc1)C(=O)N1CCCC1 (stereo unspecified) | i | 1.4
O=C(NNC(=S)NC(=O)c1ccc(F)cc1)c1cccnc1 | i | 1.5
COc1cc(NC(=O)C(Cc2ccccc2)n2cccc2)cc(OC)c1 (stereo unspecified) | i | -4.1
CCOC(=O)/C(C#N)=C/C1=C(N2CCOCC2)CC(C)(C)OC1 | i | -0.18
CCOC(=O)C1=C(C)N=C(/N=C/N(C)C)SC1c1ccccc1 (stereo unspecified) | i | -0.49
CC(C)c1ccc(NC(=O)C2CCCN(S(=O)(=O)c3ccc4c(c3)C(C)(C)C(=O)N4C)C2)cc1 (stereo unspecified) | i | -0.93
O=C(c1cc2ccccc2[nH]1)N(Cc1cccnc1)CC1CCCN(C2CCCCC2)C1 (stereo unspecified) | i | 2
O=C(c1ccc(N2CCCCC2)c([N+](=O)[O-])c1)N(Cc1ccccc1)c1ccccn1 | i | -0.36
Cn1c(SCc2ccccn2)nc2c1c(=O)[nH]c(=O)n2C | i | -0.49
C/C(=N\NC(=S)Nc1ccccc1C)c1cc2ccccc2o1 | i | 0.17

The list is partial. The share of hits here may be higher or lower than overall.
